VCAM-1 up imaging – enhancers of VCAM-1 display on endothelial cells, imaging, high-content imaging, pooled HUVEC, TNFa stimulus (AID 457). Pooled HUVEC, TNFa-induced VCAM-1 immunofluorescence imaging; hits of this screen are not shown here. calls only. actives 0.2% (n = 10,000);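 active = a top-ranked rise in VCAM-1 staining upheld on image or statistical review; inactive = the rest, including candidates rejected on review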;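 also: compounds tested at 5 µM in the well; cells exposed to compound for 24 hours before fixing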
FPR ligand – ligands of human FPR, also counter-screen for FPRL1 ligands. AID 440. FPR-expressing cells, fluorescent ligand binding, flow cytometry. actives 0.74% (n = 24,000). inhibition, %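 (tested at 6.7 µM)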;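 also: 0% = buffer wells and 100% = receptor blocker peptide wells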
Target sequence (P21462 whole entry, looked up): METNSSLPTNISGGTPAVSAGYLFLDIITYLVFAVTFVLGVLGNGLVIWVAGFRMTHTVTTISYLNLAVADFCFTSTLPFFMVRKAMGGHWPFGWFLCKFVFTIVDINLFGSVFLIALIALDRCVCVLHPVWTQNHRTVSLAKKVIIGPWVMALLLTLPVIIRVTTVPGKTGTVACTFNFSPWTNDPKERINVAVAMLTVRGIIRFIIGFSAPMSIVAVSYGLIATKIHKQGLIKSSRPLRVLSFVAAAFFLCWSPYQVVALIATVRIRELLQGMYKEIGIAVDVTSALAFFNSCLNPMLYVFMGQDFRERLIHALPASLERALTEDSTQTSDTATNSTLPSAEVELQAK
VCAM-1 down – suppression of endothelial VCAM-1 upregulation – cell-based, plate reader, pooled HUVEC, TNFa stimulus (AID 454); HUVEC TNFa-induced VCAM-1 surface immunofluorescence, plate reader; numbers were filed only for top-ranked candidate wells; inhibition, % at 5 µM; actives 0.2% (n = 10,000);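 active = compound among top-ranked inhibitors of TNF-induced VCAM-1 adhesion protein staining, with the hit upheld by image or statistical review; inactive = the rest, including hits rejected on review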;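 also: 0% = TNFa with vehicle and 100% = cells without TNFa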
FPRL1 binder – binds the human formylpeptide receptor-like-1 FPRL1; P25090; FPRL1-expressing cells, fluorescent ligand binding inhibition, flow cytometry; inhibition, %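 (tested at 6.7 µM)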; actives 0.3% (n = 24,000);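 also: 0% = buffer alone and 100% = receptor blocker peptide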
Target sequence (P25090 whole entry, looked up): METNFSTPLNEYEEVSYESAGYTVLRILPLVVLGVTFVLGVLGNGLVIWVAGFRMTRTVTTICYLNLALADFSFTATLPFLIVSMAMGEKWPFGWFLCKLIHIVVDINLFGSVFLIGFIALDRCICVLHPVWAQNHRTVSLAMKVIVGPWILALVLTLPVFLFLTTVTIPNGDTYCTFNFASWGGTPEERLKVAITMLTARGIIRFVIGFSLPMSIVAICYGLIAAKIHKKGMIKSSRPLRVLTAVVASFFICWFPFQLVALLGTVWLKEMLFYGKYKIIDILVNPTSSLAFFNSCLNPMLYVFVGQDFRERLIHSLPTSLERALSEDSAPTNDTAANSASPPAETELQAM
VCAM-1 imaging – suppression of endothelial VCAM-1 upregulation – imaging, high-content imaging, pooled HUVEC, TNFa stimulus (AID 456); HUVEC TNFa-induced VCAM-1 surface expression, immunofluorescence imaging; numbers were filed only for top-ranked candidate wells; inhibition, % at 5 µM; hits with a dose series show IC50 in µM; actives 0.2% (n = 10,000);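 active = top tenth filtered wells with inhibition above zero that passed visual or statistical confirmation; inactive = the rest, including hits rejected on review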;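 also: 0% = stimulated vehicle wells and 100% = unstimulated cells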
An asterisk follows results filed as active; i = inactive; nt = not tested or not shown.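 The calls were made as follows, unless noted: active = mean above 30%; inconclusive = self-fluorescent; inactive = the rest.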 The list is partial; count on the stated rates, not on these rows.

SMILES | VCAM-1 up imaging | FPR ligand | VCAM-1 down | FPRL1 binder | VCAM-1 imaging
O=C1OCCC1Sc1ncnc2sc3c(c12)CCC3 (stereo not drawn) | i | -6 | i | -7 | i
COc1ccc(C2C(C#N)=C(N)OC3=C2C(=O)CC(C)C3)c(OC)c1OC (stereo not drawn) | i | -2 | i | 6 | i
COc1ccc(C2C(C(=O)NCc3ccccn3)c3ccccc3C(=O)N2C)cc1OC (stereo not drawn) | nt | -1 | nt | 5 | nt
O=C(CCNC(=O)Cn1cnc2ccccc2c1=O)NCC1COc2ccccc2O1 (stereo not drawn) | nt | -8 | nt | 4 | nt
O=C(CSc1ccccc1C(=O)NCCCN1CCCC1=O)NCc1ccco1 | i | 12 | i | 0 | i
CCc1ccccc1S(=O)(=O)Cc1ccc(C(=O)NC(C)C)o1 | nt | -3 | nt | -1 | nt
O=C(CCNS(=O)(=O)c1ccc(Br)cc1)NCc1ccc2c(c1)OCO2 | nt | 2 | nt | 4 | nt
COc1ccc(OC)c2sc(N3CCN(c4ccccc4)CC3)nc12 | nt | -4 | nt | 7 | nt
CCOC(=O)c1cccc(NC(=O)CCc2nc(-c3ccccc3F)no2)c1 | nt | -7 | nt | 1 | nt
CCOCCCNC(=O)C1CCN(S(=O)(=O)N2CCCCC2)CC1 | nt | -1 | nt | 1 | nt
O=C1CSC(c2cn(-c3ccccc3)nc2-c2ccccc2)N1Cc1ccco1 (stereo not drawn) | i | -5 | i | 1 | i
COc1ccc(OC)c(-c2nnc(SCC(=O)N3CCCc4ccccc43)o2)c1 | nt | 1 | nt | -7 | nt
Cc1ccc(S(=O)(=O)N2CCN(C(=O)c3ccccc3)C2C(C)C)cc1 (stereo not drawn) | nt | 2 | nt | 5 | nt
CC(NC(=O)c1cc(-c2ccc(Br)cc2)on1)c1ccccc1 (stereo not drawn) | nt | 0 | nt | 2 | nt
CCCCc1nc2c(=O)[nH]c3ccccc3c2o1 | nt | -2 | nt | -1 | nt
CCCC1(C(=O)OCC)NC(c2ccc(N(C)C)cc2)C2C(=O)N(c3ccccc3)C(=O)C21 (stereo not drawn) | i | 2 | i | 1 | i
Cn1c(SCC(=O)Nc2ccc3c(c2)oc2ccccc23)nnc1-c1ccccc1 | i | -4 | i | -1 | i
Cc1nnc(SCC(=O)Nc2sc3c(c2C#N)CCCC3)[nH]c1=O | i | 6 | i | -2 | i
Clc1ccc(Cn2cc(/C=N/n3cnnc3)c3ccccc32)cc1 | nt | -1 | nt | -4 | nt
Cc1ccc2c(c1)NC(=O)C(CC(=O)NCCCN1CCCC1=O)O2 (stereo not drawn) | nt | -2 | nt | -2 | nt
COc1ccc(N2C(=O)CC(N3CCCC4CCCCC43)C2=O)cc1 (stereo not drawn) | i | 2 | i | -2 | i
COc1cccc(-c2nc(CS(=O)(=O)CC(=O)NCCCN3CCc4ccccc4C3)c(C)o2)c1 | nt | -9 | nt | -5 | nt
Cc1ccnc(SCCn2c(N3CCN(Cc4ccccc4)CC3)nc3c2c(=O)[nH]c(=O)n3C)n1 | i | -7 | i | -4 | i
CCCc1nnc(NC(=O)CCCC(=O)O)s1 | nt | -5 | nt | 2 | nt
Cc1cccc(N(CC(N)=O)S(C)(=O)=O)c1C | i | -10 | i | -1 | i
C=CCNC(=O)c1cc(-c2ccccc2O)on1 | i | 9 | i | 1 | i
Cc1ccc(-c2nn3c(C)nnc3s2)cc1NC(=O)c1ccco1 | nt | -4 | nt | -4 | nt
CC(C)NC(=O)c1cnc(N2CCN(c3ccccn3)CC2)c2ccccc12 | nt | 2 | nt | -3 | nt
O=C(CC(C(=O)N1CCc2ccccc21)n1ccnc1)NCC1CCCO1 (stereo not drawn) | nt | -6 | nt | -1 | nt
COc1cccc(NC(=O)CCSc2nnc3scc(-c4ccccc4)n23)c1 | nt | 11 | nt | -10 | nt
COc1ccc(NC(=O)c2ccc(NS(=O)(=O)c3c(C)noc3C)cc2)cc1OC | nt | 4 | nt | 1 | nt
Cc1ccc(Cl)cc1N1CCN(C(=O)CN2C(=O)c3cccc4cccc2c34)CC1 | i | 1 | i | -5 | i
O=C(CCCCCN1C(=O)c2ccccc2C1=O)NCc1ccccn1 | nt | 1 | nt | 3 | nt
CC(=O)N1CCN(c2ccc(NC(=O)c3ccc(C(C)(C)C)cc3)cc2)CC1 | i | -3 | i | -3 | i
O=C(NC1CC1)C1CC(=O)N(C2CCCCC2)C1 (stereo not drawn) | nt | 0 | nt | -2 | nt
COc1ccccc1N1CCN(C(=O)C2C3C=CC4(CN(Cc5ccccc5Cl)C(=O)C24)O3)CC1 (stereo not drawn) | nt | 16 | nt | 5 | nt
CCOc1ccc(S(=O)(=O)N2CCN(c3ccccc3OC)CC2)c2cccnc12 | nt | -2 | nt | -1 | nt
CCN1CCN(S(=O)(=O)c2ccc3[nH]c(=O)oc3c2)CC1 | nt | 1 | nt | -1 | nt
N#Cc1nc(COc2cccc(Cl)c2)oc1NCc1ccco1 | nt | -5 | nt | -2 | nt
CCOc1ccc(C2C=C(c3ccc(F)cc3)Nc3ncnn32)cc1 (stereo not drawn) | i | 1 | i | -7 | i
Cc1oc(-c2ccccc2F)nc1CN1CCC(C(=O)NC2CCCCCCC2)CC1 | nt | -4 | nt | -4 | nt
CCC1CCc2c(sc3ncnc(N4CCOCC4)c23)C1 (stereo not drawn) | i | -5 | i | -12 | i
C[C@@H]1C[C@H](O)c2cc(Cl)ccc2N1 | i | -1 | i | -2 | i
CCOc1ccc(OCC)c(NC(=O)c2[nH]c(C)c(C(C)=O)c2C)c1 | nt | 4 | nt | -3 | nt
O=C(Cn1cc2c(n1)CCCC2)Nc1cc(-c2cccc(Cl)c2)no1 | nt | 26 | nt | -2 | nt
Cc1cc(=O)n(CC(C)C)c(O)c1C#N | i | 2 | i | -7 | i
COCCCNC(=O)c1c(N)n(-c2cccc(S(N)(=O)=O)c2)c2nc3ccccc3nc12 | i | -7 | i | 1 | i
COc1ccc(Br)cc1C1N2CC3(C)CN1CC(C)(C2)C3=O (stereo not drawn) | i | -2 | i | 2 | i
CCSc1nc2c(c(=O)[nH]1)C(c1ccncc1)C(C(=O)OC(C)C)=C(C)N2 (stereo not drawn) | nt | 10 | nt | 11 | nt
COc1ccccc1N(CC(=O)Nc1cccnc1)S(C)(=O)=O | i | -1 | i | -5 | i
CCc1nnc(NC(=O)C2Cc3ccccc3C(=O)O2)s1 (stereo not drawn) | nt | -4 | nt | 2 | nt
CCOC(=O)Cn1nc(-c2ccc(Cl)cc2)ccc1=O | nt | 1 | nt | 1 | nt
COc1cc(OC)c(NC2c3ccccc3C(=O)N2c2cc(C)ccn2)cc1Cl (stereo not drawn) | nt | -4 | nt | 18 | nt
Cn1c(CN2CCOCC2)nnc1SCC(=O)NCCc1ccccc1 | i | -4 | i | -10 | i
CN(C)S(=O)(=O)c1ccc(/C(O)=C2/C(=O)C(=O)N(CCN3CCCCC3)C2c2cccnc2)cc1 (stereo not drawn) | i | -8 | i | 8 | i
Cc1ccc(C2CC(c3cccc(Br)c3)Nc3nnnn32)cc1 (stereo not drawn) | i | 3 | i | 5 | i
CCC(C)NC(=O)CC1Oc2ccc(Cl)cc2NC1=O (stereo not drawn) | nt | -3 | nt | 0 | nt
CC(C)(C)c1csc(N(CCC#N)CCC#N)n1 | nt | -12 | nt | -11 | nt
COc1ccc(-n2c(Cc3cccn3C)nnc2SCC(=O)Nc2cccc(NC(C)=O)c2)cc1 | nt | -4 | nt | -3 | nt
COCCN(CCOC)Cc1c(C)[nH]c2ccccc2c1=O | i | 0 | i | 2 | i

Among those listed so far, 3 contain fluorine.
SMILES | VCAM-1 up imaging | FPR ligand | VCAM-1 down | FPRL1 binder | VCAM-1 imaging
CCOC(=O)c1cccc(NC(=O)CCc2nc(-c3ccccc3F)no2)c1 | nt | -7 | nt | 1 | nt
CCOc1ccc(C2C=C(c3ccc(F)cc3)Nc3ncnn32)cc1 (stereo not drawn) | i | 1 | i | -7 | i
Cc1oc(-c2ccccc2F)nc1CN1CCC(C(=O)NC2CCCCCCC2)CC1 | nt | -4 | nt | -4 | nt

The listing continues:
SMILES | VCAM-1 up imaging | FPR ligand | VCAM-1 down | FPRL1 binder | VCAM-1 imaging
O=C(CN1CCOc2ccccc21)N1CCN(c2cccc(Cl)c2)CC1 | nt | 0 | nt | -1 | nt
CC(=O)Nc1cc(-c2nn3c(C)nnc3s2)ccc1C | nt | 1 | nt | -3 | nt
CCCCCCNC(=O)Cc1c(O)c2ccccc2[nH]c1=O | i | -2 | i | -1 | i
Cc1ccc(-c2noc(CCC(=O)Nc3ccccc3N3CCN(C)CC3)n2)cc1 | nt | 1 | nt | -3 | nt
O=C(Cn1cnc2c(nnn2Cc2ccc(Cl)cc2)c1=O)N1CCCc2ccccc21 | nt | 13 | nt | 1 | nt
Cc1cc(C)nc(SCC(=O)c2ccc(O)cc2O)n1 | nt | -4 | nt | 2 | nt
CN(C)CCSc1nnc2sc3ccccc3n12 | i | 0 | i | -2 | i
O=C(NCc1n[nH]c(=S)n1-c1cccc(Cl)c1)c1ccc(S(=O)(=O)N2CCCC2)cc1 | nt | 3 | nt | 6 | nt
Cc1ccc(CCP(=O)(O)CN2CCOCC2)cn1 | i | 11 | i | 6 | i
COc1ccc(C(=O)N(c2ccccc2)C2C=CS(=O)(=O)C2)cc1 (stereo not drawn) | nt | 2 | nt | -1 | nt
CC1(C)OC(=O)N(CCc2ccccc2)C1(C)O (stereo not drawn) | nt | 0 | nt | 1 | nt
COC(=O)C1(C(F)(F)F)N=C2Sc3ccccc3N2C(N2CCOCC2)=N1 (stereo not drawn) | i | 0 | i | 3 | i
CCOc1ccc2nc(SCC(=O)Nc3ncccn3)[nH]c2c1 | i | -4 | i | -2 | i
O=C(NCCN1CCOCC1)C1CCC(=O)N1C1CCCCC1 (stereo not drawn) | nt | -2 | nt | 1 | nt
CC(=O)N(C)C1(c2nnnn2CCOC(=O)Nc2cccc3ccccc23)CCCC1 | i | -5 | i | 3 | i
COc1ccc(C(=O)NCCc2nnc(SCc3nc4ccccc4c(=O)[nH]3)n2C)cc1 | i | 1 | i | 3 | i
CCOC(=O)CSc1nc2cc(C(=O)N3CCC(C(N)=O)CC3)ccc2c(=O)n1-c1ccccc1 | i | -1 | i | 3 | i
COc1ccc(S(=O)(=O)n2nc(OC(=O)c3ccc(C)cc3)cc2N)cc1 | i | -1 | i | 0 | i
Cc1nc2ccc(Br)cn2c1NC(C)(C)C | i | -1 | i | 9 | i
Cc1cc(C)c(S(=O)(=O)Nc2ccc(O)cc2)cc1C | nt | -2 | nt | -8 | nt

An excerpt from above, reduced to FPR ligand, VCAM-1 imaging and VCAM-1 up imaging:
structure | FPR ligand | VCAM-1 imaging | VCAM-1 up imaging
COc1ccc(C(=O)NCCc2nnc(SCc3nc4ccccc4c(=O)[nH]3)n2C)cc1 | 1 | i | i
CCOC(=O)CSc1nc2cc(C(=O)N3CCC(C(N)=O)CC3)ccc2c(=O)n1-c1ccccc1 | -1 | i | i
COc1ccc(S(=O)(=O)n2nc(OC(=O)c3ccc(C)cc3)cc2N)cc1 | -1 | i | i
Cc1nc2ccc(Br)cn2c1NC(C)(C)C | -1 | i | i
Cc1cc(C)c(S(=O)(=O)Nc2ccc(O)cc2)cc1C | -2 | nt | nt

Later entries
SMILES | VCAM-1 up imaging | FPR ligand | VCAM-1 down | FPRL1 binder | VCAM-1 imaging
Cc1cccc(CS(=O)(=O)Cc2ccc(C(=O)NCCN3CCCCC3C)o2)c1 (stereo not drawn) | nt | -2 | nt | -1 | nt
N#CCSC1=Nc2ccccc2C2=NC(CCC(=O)N3CCN(c4ccccc4)CC3)C(=O)N12 (stereo not drawn) | nt | 0 | nt | -4 | nt
COCC(=O)N(c1ccc(C(C)C)cc1)C1C=CS(=O)(=O)C1 (stereo not drawn) | i | 3 | i | -2 | i
Cc1nnc(SCc2cnc(-c3ccccc3)o2)[nH]c1=O | i | 63* | i | 52* | i
CCCCNC(=O)c1ccc(N2CCOCC2)c(NS(=O)(=O)c2ccc(OC)cc2)c1 | nt | 13 | nt | -1 | nt
Oc1ccccc1-c1nnc(-c2ccc(C(F)(F)F)cc2)o1 | nt | 0 | nt | -14 | nt
COc1cccc(C2C3=C(CCCC3=O)Nc3nc(-c4cc(OC)c(OC)c(OC)c4)nn32)c1 (stereo not drawn) | nt | 1 | nt | -10 | nt
CCOc1cc2[nH]c(=O)n(CCC(=O)NCCc3ccc(OC)c(OC)c3)c(=O)c2cc1OCC | i | 1 | i | 4 | i
Nc1c(S(=O)(=O)c2ccccc2)nnn1-c1ccccc1 | nt | -5 | nt | -1 | nt
Cc1cc(=O)n2nc(N3CCCC(C(=O)N4CCN(C)CC4)C3)sc2n1 (stereo not drawn) | i | -2 | i | 2 | i
COc1ccc(C(=O)Nc2cc3c(cc2C#N)OCO3)cc1S(=O)(=O)N1CCN(C)CC1 | nt | -4 | nt | 0 | nt

Assay outcomes deposited in PubChem BioAssay by several laboratories.
